PREPL inhibitor: human PREPL enzyme inhibition | 0.68% of 320,000 active | inhibition, % at 5.96 µM | Q4J6C6 | recombinant PREPL, fluorescence polarization activity-based probe; in the data active means inhibition above about 43%;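 further: 0% = enzyme with DMSO and 100% = wells lacking enzyme; many of its hits are not listed in these tables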
PAFAH1B2 inh: blocks human PAF acetylhydrolase 1b catalytic subunit 2; 1.2% of 340,000 active; P68402; inhibition, % at 3.39 µM; recombinant PAFAH1B2, FP-rhodamine activity probe, fluorescence polarization;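 active means inhibition above the mean of all tested compounds plus 3 SD, cut at about 24% in these data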;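 further: 0% = enzyme with DMSO and 100% = wells lacking PAFAH1B2; many of its hits are not listed in these tables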
Target sequence (P68402 whole entry, looked up): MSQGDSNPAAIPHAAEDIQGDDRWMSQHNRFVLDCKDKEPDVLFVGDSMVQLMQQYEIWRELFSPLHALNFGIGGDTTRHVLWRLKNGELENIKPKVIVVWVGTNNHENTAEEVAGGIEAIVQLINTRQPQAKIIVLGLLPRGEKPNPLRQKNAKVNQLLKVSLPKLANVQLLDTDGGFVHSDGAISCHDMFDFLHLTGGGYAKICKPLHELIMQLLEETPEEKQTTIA
GSTO1 inh: counter-screen for RBBP9 inhibitors: inhibitors of human GSTO1; P78417; 1.1% of 300,000 active; AID 1974; inhibition, % at 5.96 µM; recombinant GSTO1, activity-based probe fluorescence polarization;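 active means inhibition above the campaign mean inhibition plus 3 SD, cut at about 35% in these data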;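 further: 0% = GSTO1-1 with DMSO and 100% = wells lacking GSTO1-1 enzyme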
Target sequence (P78417 whole entry, looked up): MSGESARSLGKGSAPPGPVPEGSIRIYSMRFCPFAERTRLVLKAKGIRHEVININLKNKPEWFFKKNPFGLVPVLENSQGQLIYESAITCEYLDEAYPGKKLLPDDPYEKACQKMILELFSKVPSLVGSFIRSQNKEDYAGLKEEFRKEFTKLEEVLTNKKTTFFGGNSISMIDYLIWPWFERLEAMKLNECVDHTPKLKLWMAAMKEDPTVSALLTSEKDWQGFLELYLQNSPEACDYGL
LYPLA1 counter: LYPLA1 (human) inhibition in PME1 counter-screen; O75608; recombinant LYPLA1, FP-Rh probe fluorescence polarization; inhibition, % at 5.9 µM; 0.16% of 320,000 active;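 active means inhibition above the mean of all tested compounds plus 3 SD, set per campaign, cut at about 14% in these data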;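 further: inhibitors block serine hydrolase probe labeling of LYPLA1 so polarization falls; 0% = enzyme with DMSO and 100% = wells lacking LYPLA1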
pPAFAH inh: inhibitors of human plasma PAF acetylhydrolase (pPAFAH). Q13093. inhibition, % at 3.39 µM. recombinant pPAFAH, FP-rhodamine probe fluorescence polarization. 1.5% of 330,000 active. AID 463082;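 active means inhibition above the mean inhibition across the screen plus 3 SD, cut at about 25% in these data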;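 further: inhibitors block binding of the rhodamine activity-based probe so polarization drops; 0% = enzyme with DMSO and 100% = wells lacking pPAFAH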
LYPLA2 inh: LYPLA2 (human) inhibition in PME1 counter-screen. O95372. recombinant LYPLA2, FP-Rh probe fluorescence polarization. inhibition, % at 5.9 µM. 0.38% of 320,000 active;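 active means inhibition above the screen-wide mean plus 3 SD, limit set per campaign, cut at about 26% in these data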;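 further: 0% = LYPLA2 with DMSO and 100% = wells lacking LYPLA2 enzyme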
Target sequence (O95372 whole entry, looked up): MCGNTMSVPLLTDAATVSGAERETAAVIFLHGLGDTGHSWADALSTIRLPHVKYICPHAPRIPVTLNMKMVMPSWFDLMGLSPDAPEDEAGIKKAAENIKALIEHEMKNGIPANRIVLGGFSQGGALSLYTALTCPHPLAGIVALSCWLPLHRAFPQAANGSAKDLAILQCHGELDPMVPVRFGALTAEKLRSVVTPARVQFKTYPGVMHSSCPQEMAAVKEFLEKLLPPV
PAD4 FP inh: inhibitors of human PAD4; Q9UM07; recombinant PAD4, RCA probe fluorescence polarization; inhibition, % at 6.36 µM; 0.41% of 330,000 active;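 active means percent inhibition above a cutoff equal to the mean of all tested compounds plus 3 SD, cut at about 15% in these data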;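 further: 0% = PAD4 with RCA probe and DMSO and 100% = probe without PAD4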
PAFAH1B3 FP inh: blocks human PAF acetylhydrolase 1B catalytic subunit 3; Q15102; recombinant PAFAH1B3, FP-rhodamine probe, fluorescence polarization; inhibition, % at 3.39 µM; 0.28% of 340,000 active;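 active means inhibition above the screen-wide average of all tested compounds plus 3 SD, cut at about 25% in these data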;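 further: 0% = enzyme with DMSO only and 100% = wells lacking PAFAH1B3 protein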
Target sequence (Q15102 whole entry, looked up): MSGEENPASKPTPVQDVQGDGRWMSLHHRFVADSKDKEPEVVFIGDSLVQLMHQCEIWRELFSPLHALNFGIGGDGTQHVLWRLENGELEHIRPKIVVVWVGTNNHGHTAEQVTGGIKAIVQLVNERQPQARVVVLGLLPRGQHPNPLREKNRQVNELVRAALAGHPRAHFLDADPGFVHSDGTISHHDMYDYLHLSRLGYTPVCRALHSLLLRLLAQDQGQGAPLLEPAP
* = called active by the depositor; x = not tested or not shown.

| Molecule | PREPL inhibitor | PAFAH1B2 inh | GSTO1 inh | LYPLA1 counter | pPAFAH inh | LYPLA2 inh | PAD4 FP inh | PAFAH1B3 FP inh |
| --- | --- | --- | --- | --- | --- | --- | --- | --- |
| CC(C)(C)C1=CC(O)(c2ccccc2)C=C(C(C)(C)C)C1=O | 4 | 6 | 0 | -6 | 4 | -7 | 3 | 2 |
| Cc1ccc(NC(=O)N2CCCC2C(=O)Nc2c(C)cc(C)cc2C)cc1 (stereo not given) | -7 | 1 | -2 | 4 | 0 | 4 | 2 | -3 |
| Cc1ccc(S(=O)(=O)Nc2ccccc2-c2nc3ccccc3[nH]c2=O)cc1 | -1 | 8 | x | 1 | 1 | 1 | -2 | -6 |
| Cc1ccc([N+](=O)[O-])cc1S(=O)(=O)Nc1cccc(-c2ccc(N3CCOCC3)nn2)c1 | -5 | 0 | 1 | -1 | 4 | 0 | -1 | 2 |
| Cc1cc(=O)oc2ccc(OC(=O)c3cccc(S(=O)(=O)N4CCOCC4)c3)cc12 | 18 | -3 | 1 | 4 | 2 | 2 | 9 | 3 |
| O=[N+]([O-])c1ccc(S(=O)(=O)Nc2nc3ccccc3nc2Nc2ccccc2)cc1 | 7 | x | -5 | -3 | -3 | -7 | -6 | x |
| COc1cccc(NC(=O)N2CCN(c3nc(-c4cccc(OC)c4)cs3)CC2)c1 | 8 | 7 | -12 | -4 | 6 | 0 | -1 | 8 |
| N#Cc1ccc(/C=N/NC(=O)c2ccccc2F)cc1 | 1 | 2 | -3 | 2 | 0 | 10 | -4 | 15 |
| CN1c2ccccc2C(=O)C(=C2SCCCS2)S1(=O)=O | 3 | 2 | 1 | 1 | 5 | -1 | 1 | 9 |
| O=C1CN(C(=O)c2cc3ccccc3oc2=O)C(c2ccc(F)cc2)c2cc(F)ccc2N1 (stereo not given) | -2 | 0 | -1 | 1 | 6 | 16 | 3 | 7 |
| COC(=O)c1sc(N/N=C/c2ccc(C(C)C)cc2)nc1C | 22 | 2 | 5 | -8 | 9 | 0 | -2 | 3 |
| CNC(=O)CSc1nnc(-c2ccco2)n1-c1ccccc1 | -4 | 12 | 4 | 0 | 3 | 5 | -3 | 6 |
| CCc1sc(C(=O)NC2CCN(C)CC2)cc1Br | 0 | 3 | 0 | 0 | 4 | 3 | 2 | -3 |
| O=C(COc1cccc(NC(=O)c2cccc([N+](=O)[O-])c2)c1)c1ccc(Br)cc1 | -24 | 12 | -78 | -12 | 21 | 18 | -4 | 12 |
| CC(C(=O)NC1CCCc2ccccc21)N1CCN(c2ccc(F)cc2)CC1 (stereo not given) | 3 | 5 | 1 | -2 | 4 | -1 | -2 | 7 |
| COc1ccc(S(=O)(=O)N(CCCN2CCOCC2)Cc2cccc3ccccc23)cc1 | -3 | 1 | -2 | -6 | -4 | -2 | -5 | 3 |
| CCc1ccc(S(=O)(=O)Nc2cccc(-c3ccc4nnc(C)n4n3)c2)s1 | -4 | 1 | -7 | 1 | 2 | -1 | -3 | 9 |
| O=S(=O)(c1cccc(S(=O)(=O)N2CCCC2)c1)c1cccc(S(=O)(=O)N2CCCC2)c1 | 0 | 1 | 5 | -2 | 1 | -1 | 2 | 1 |
| COc1ccc([C@H]2CC(=O)C=C(c3ccc(OC)c(OC)c3)C2)cc1 | -4 | -2 | x | -2 | 4 | 9 | 1 | -2 |
| COc1cccc(-c2nc(-c3ccc(NC(=O)c4ccncc4)cc3)no2)c1 | -20 | -2 | -14 | -8 | -3 | 1 | -2 | 11 |
| CSc1ccc(NC(=O)Nc2cccn(Cc3ccccc3)c2=O)cc1 | 20 | 12 | 0 | -2 | 11 | 22 | -2 | 11 |
| O=S(=O)(Nc1ccc(S(=O)(=O)Nc2nccs2)cc1)c1ccc2c(c1)OCCO2 | 8 | 1 | 0 | 3 | 5 | 2 | -1 | 4 |
| CC(=O)N1CCc2cc(C(=O)CN3CCCCC3)ccc21 | -3 | 1 | 3 | -1 | -4 | 4 | 1 | 4 |
| Cc1ccc(NC(=O)CSCc2nc3c(nnn3Cc3ccc(F)cc3)c(=O)[nH]2)c(C)c1 | 2 | 24 | 2 | -1 | 4 | 0 | -2 | -2 |
| N#Cc1ncn(-c2ccc(Oc3ccccc3)cc2)c1N | 4 | -3 | 13 | 3 | 6 | 12 | -4 | -3 |
| O=C(OC1CCOC1=O)c1cccc(S(=O)(=O)Nc2cccc(Cl)c2)c1 (stereo not given) | 1 | -4 | 0 | 1 | 27* | 1 | 0 | 9 |
| S=c1[nH]nc(Cc2cccs2)n1-c1cccc2ccccc12 | 2 | 8 | 4 | 1 | 2 | 0 | -3 | 11 |
| S=c1[nH]nc(C2CCCCC2)n1/N=C/c1ccccc1Br | 7 | 6 | -1 | -1 | 12 | -1 | -1 | 4 |
| CCC1CCCCN1CCCNC(=O)c1ccc2c(c1)N(Cc1c(F)cccc1Cl)C(=O)CS2 (stereo not given) | -67 | 5 | 4 | -3 | 4 | -1 | -3 | 5 |
| CN(C)S(=O)(=O)c1cccc(C(=O)NCCCn2ccnc2)c1 | 10 | -2 | 9 | 3 | 5 | 1 | 1 | 8 |
| Cc1ccc(C(=O)C=CNNC(=O)c2ccccc2)cc1 | 28 | 0 | 5 | 0 | 5 | 3 | 2 | 5 |
| Cc1ccc(CN(C)C(=O)COc2ccc(S(=O)(=O)N3CCCC3)cc2[N+](=O)[O-])c(C)c1 | 2 | 1 | x | -2 | 4 | 2 | -2 | 1 |
| COc1ccc2[nH]c(=O)c(-c3nnn(-c4ccccc4)n3)cc2c1 | -4 | 6 | -7 | -2 | 6 | -1 | 1 | 8 |
| O=c1cc(NC2CCCCC2)[nH]c(=O)[nH]1 | -4 | 6 | 2 | -2 | 0 | -6 | 2 | 8 |
| CC(C)Oc1ccc(Br)cc1C(=O)N/N=C/c1c[nH]c2ccccc12 | 32 | 4 | -1 | -3 | 15 | -1 | 0 | 17 |
| COc1ccc(S(=O)(=O)N2CCCCCC2)cc1C(=O)OCc1cccc(OC)c1OC | 2 | 2 | 1 | -4 | 1 | -1 | -2 | -4 |
| COc1ccc(S(=O)(=O)N2CCCCC2)cc1NC(=O)CSc1ncnc2ccccc12 | 2 | 0 | 1 | -2 | 3 | -8 | 8 | 3 |
| Fc1ccc(-n2c(Cc3cccs3)n[nH]c2=S)cc1Cl | 13 | 20 | -7 | -2 | 1 | -4 | 3 | 7 |
| COc1cccc(-c2csc(N3CCN(C(=O)Nc4ccc(Cl)cc4)CC3)n2)c1 | 13 | -6 | -11 | -13 | -1 | -16 | -3 | -4 |
| C[C@H](NC(=O)c1nc[nH]c1C(=O)N(C)Cc1ccccc1)C(=O)OC(C)(C)C | 11 | 2 | -1 | 2 | -2 | -1 | -3 | 11 |
| O=C(NCc1ccco1)C1(S(=O)(=O)c2ccccc2)CC=CC1 | 4 | 6 | 0 | 3 | 6 | 1 | -2 | 3 |
| COc1ccccc1NS(=O)(=O)c1ccc(C(=O)N2CC(C)OC(C)C2)cc1 (stereo not given) | 3 | 2 | x | 0 | 0 | 7 | 6 | 6 |
| Cc1ccc(NC(=O)CN2CCc3ccccc3C2)cc1S(=O)(=O)N1CCOCC1 | 2 | 2 | -4 | -2 | 7 | -1 | 1 | 14 |
| O=[N+]([O-])c1cc(-c2n[nH]c(-c3ccccc3)n2)cc([N+](=O)[O-])c1 | 9 | 1 | 3 | 0 | 4 | -5 | -3 | 11 |
| CCn1c2ccccc2c2cc(NC(=O)COC(=O)c3ccccc3O)ccc21 | -1 | -2 | 4 | -3 | 4 | 5 | 5 | 0 |
| COc1ccc(NC(=O)Nc2nc3c(s2)CCCC3)cc1 | 23 | 7 | 3 | -2 | 8 | 9 | 3 | 15 |
| COc1ccccc1NC(=O)C(=O)N(c1cccnc1)C(C(=O)NC(C)(C)C)c1ccccc1F (stereo not given) | -6 | 1 | -2 | 1 | 7 | 4 | -5 | 5 |
| Cc1ccc(NC2SC(=O)N(CC(=O)O)C2=O)cc1 (stereo not given) | -4 | 6 | 4 | -4 | 1 | -3 | -5 | 4 |
| O=C(NC1CCCCCC1)C1CCN(C(=O)c2ccc(Br)cc2)CC1 | 0 | 8 | 1 | -2 | 0 | 1 | -1 | -4 |
| CC1CCN(CCCNC(=O)CCCNC(=O)Cn2cnc3sc4c(c3c2=O)CCCC4)CC1 | 18 | 8 | 0 | 0 | 5 | -4 | 3 | -6 |
| CCN(C(=S)NCc1ccccc1)c1ccccc1 | 5 | 13 | 5 | 1 | 5 | -1 | 1 | 10 |
| O=S(=O)(Nc1cccc(-n2cnnn2)c1)c1ccccc1C(F)(F)F | 12 | 3 | 1 | -6 | 0 | -10 | -6 | 1 |
| Cc1ccc(S(=O)(=O)N2CCCCC2)cc1NC(=O)COC(=O)c1c(F)cccc1F | 11 | -3 | 9 | 1 | 6 | -4 | -1 | 7 |
| CCOC(=O)c1c(C)[nH]c(C)c1S(=O)(=O)N(C)CC(=O)Nc1cccc(C)c1 | 1 | -1 | -1 | 1 | 4 | 1 | 2 | 2 |
| O=C(Nc1ccncc1)c1cccc(S(=O)(=O)N2CCCC2)c1 | -1 | 1 | 13 | 0 | 3 | 7 | -2 | 3 |
| O=C(/C=C/NNC(=O)c1cccc(Br)c1)c1ccccc1 | 38 | 4 | 5 | -9 | 7 | -8 | 0 | 11 |
| C/C(=N\Nc1ccc(Cl)cc1)c1c(O)cc(C)oc1=O | 3 | x | 5 | -4 | 1 | 5 | 4 | x |
| CC1CCN(S(=O)(=O)c2cn(CC(=O)N3CCN(c4cccc(C(F)(F)F)c4)CC3)cn2)CC1 | 13 | 6 | -3 | 1 | 3 | 13 | -6 | 4 |
| O=C(Cc1cccs1)N1CCC(c2nc3c(nnn3Cc3ccccc3Cl)c(=O)[nH]2)CC1 | 17 | -2 | 7 | 5 | 2 | 4 | 4 | -2 |
| CC(OC(=O)CCC(=O)c1ccccc1)C(=O)Nc1ccc(F)cc1 (stereo not given) | 0 | -5 | 3 | -1 | 5 | -5 | 0 | -1 |

Continuation.
| Molecule | PREPL inhibitor | PAFAH1B2 inh | GSTO1 inh | LYPLA1 counter | pPAFAH inh | LYPLA2 inh | PAD4 FP inh | PAFAH1B3 FP inh |
| --- | --- | --- | --- | --- | --- | --- | --- | --- |
| COc1cccc(/C=C/C(=O)OCC(=O)c2ccc3c(c2)NC(=O)CO3)c1OC | -4 | 3 | -9 | -1 | 5 | 7 | -3 | 2 |
| CCOC(=O)c1ccc(Nc2c(OCC)c(=O)c2=O)cc1 | 8 | 3 | -20 | -6 | 6 | -12 | -1 | 11 |
| CC(C)N1CCc2c(sc(NC(=S)NC(=O)c3ccccc3)c2C#N)C1 | 62* | 3 | 5 | -5 | 11 | 1 | -9 | 3 |
| COc1ccc(C)cc1NC(=O)c1ccccc1NS(=O)(=O)c1cccc2cccnc12 | 3 | -4 | -1 | -4 | 5 | 5 | -3 | 6 |
| CC1CCN(C(=O)c2cccc(S(=O)(=O)N3CCCCC3)c2)CC1 | 12 | 6 | 9 | -2 | -1 | -1 | -5 | 0 |
| Cc1ccc2cc(C#N)c(NCCNC(=S)NCCCN(C)C)nc2c1C | -19 | -1 | 16 | -7 | 2 | -4 | -3 | -8 |
| Cc1cc(S(=O)(=O)N2CCC3(CC2)OCCN3S(=O)(=O)c2cccs2)ccc1F | 5 | 3 | 5 | 2 | 3 | 1 | 2 | -2 |
| O=c1c(NCCc2ccc(Cl)cc2)c(-c2ccccc2)c1=O | 1 | 7 | 5 | 1 | 7 | 3 | -3 | 0 |
| CC(C)C1Cc2c(sc(NC(=S)NC(=O)c3ccccc3)c2C#N)CO1 (stereo not given) | -4 | 3 | 1 | 5 | 6 | 14 | 1 | 11 |
| O=[N+]([O-])c1ccccc1S(=O)(=O)Nc1ccc(S(=O)(=O)Nc2nccs2)cc1 | 7 | 2 | -1 | 1 | 8 | -2 | -1 | 15 |
| CC(C(=O)NC1CCCc2ccccc21)N1C(=O)C2CCCCC2C1=O (stereo not given) | 1 | 2 | x | 2 | 3 | 5 | -1 | -5 |

A portion of the library; rates above refer to the full screens.
